# High-throughput results from PubChem BioAssay.
# SARS PLP yeast: blocks SARS-CoV papain-like protease in a yeast assay | S. cerevisiae expressing SARS-CoV PLpro, growth rescue; control for the full effect not named in the record | Potency, µM (highest dose often 32.9 µM), for the others: at the top dose activity, positive = growth rescue | 0.19% of 330,000 active | AID 485353; active means well fitted rising curve with a large enough effect; inconclusive means small, poorly fitted or top-dose-only effect; inactive means no such curve, though single readings can be large or run the other way; also: 0% is about no effect; nearly all actives have a fitted effect of over 55% in size; growth read by luminescence after 48 h
# RE007 growth inh: less growth of the S. pombe RE007 Vpr strain; 0.21% of 360,000 active; AID 651644; S. pombe RE007 Vpr strain, BacTiter-Glo ATP luminescence, 24 h; control for the full effect not named in the record; Potency, µM (titrated, usually from 92.2 µM), inactives show at the highest dose activity change, negative = less growth; active = well fitted falling curve with a large enough effect; inconclusive = small, poorly fitted or top-dose-only effect; inactive = no such curve, though single readings can be large or run the other way;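 also: % is scaled to controls: 0 for no effect and ±100 for the full control effect; nearly all actives have a fitted effect of over 50% in size; the assay follows cell death caused by Vpr and the record does not say whether a fall means rescue or toxicity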
#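 Fission yeast strain RE007, carrying one chromosomally integrated HIV-1 vpr copy, was seeded at OD 0.01 in PMG+AL medium with 23 nL pinned compound. After 24 h at 30 °C and 99% humidity, viability was read by BacTiter-Glo luminescence.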
# Lassa entry inh: blocks Lassa virus binding to or entry into cells; 1.2% of 300,000 active; Lassa virus pseudotype entry inhibition, cell reporter; control for the full effect not named in the record; Potency, µM (doses to about 37.9 µM), for the others: at the highest dose activity change, negative = inhibition, hits mostly inhibitors; active means well fitted inhibition curve with a large enough effect; inconclusive means small, poorly fitted or top-dose-only effect, or effect the other way; inactive means flat fitted curve, though single readings scatter; tested in HEK293 cells; also: % is scaled to controls: 0 for no effect and ±100 for the full control effect; nearly all actives have a fitted effect of over 50% in size; luciferase read-out
# Cruzain inh noDet: inhibitors of Trypanosoma cruzi cruzain without detergent | P25779 | purified cruzain, Z-FR-AMC fluorescence, no detergent | Potency, µM, for the others: max response, negative = inhibition, most hits filed as inhibitors | 2.3% of 200,000 active | AID 1476;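 also: plate controls were enzyme without inhibitor for no effect and buffer without enzyme for full effect; nearly all actives have a fitted effect of over 40% in size; top concentration of the series not given in the record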
# Target sequence (P25779 123-467 limits assumed): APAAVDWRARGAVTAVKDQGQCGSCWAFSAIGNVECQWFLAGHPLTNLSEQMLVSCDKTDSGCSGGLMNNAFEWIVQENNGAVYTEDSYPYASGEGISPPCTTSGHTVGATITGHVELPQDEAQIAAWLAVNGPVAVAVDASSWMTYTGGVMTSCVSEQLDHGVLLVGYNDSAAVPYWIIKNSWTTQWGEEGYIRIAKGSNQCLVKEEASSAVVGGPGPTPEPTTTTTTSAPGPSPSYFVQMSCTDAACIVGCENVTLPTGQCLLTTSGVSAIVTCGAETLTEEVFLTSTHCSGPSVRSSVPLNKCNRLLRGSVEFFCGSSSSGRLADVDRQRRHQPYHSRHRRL
#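 Detergent-free condition (0.00005% Triton X-100) in acetate buffer pH 5.5 with DTT. 1.5 nM enzyme and compound were pre-mixed 15 min, then 2 uM Z-FR-AMC substrate added; reaction progress from fluorescence change between first and third reads (60 s).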
# Cruzain inh Det: cruzain (T. cruzi) inhibition with detergent; purified cruzain, Z-FR-AMC fluorescence, 0.01% Triton; 0.43% of 200,000 active; Potency, µM, without a hit: max response, negative = inhibition, actives largely listed as inhibitors;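 also: plate controls were neutral wells for no effect and buffer without enzyme for full effect; nearly all actives have a fitted effect of over 40% in size; top concentration of the series not given in the record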
#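 Sodium acetate buffer (100 mM, pH 5.5) containing 5 mM DTT and 0.01% Triton X-100 hosted 1.5 nM cruzain and test compound for 15 min at room temperature. Cleavage of 2 uM Z-FR-AMC was then tracked by fluorescence.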
# Marburg entry inh: blocks Marburg virus binding to or entry into cells; Marburg virus pseudotyped entry inhibition, cell reporter; control for the full effect not named in the record; about a third of the inactives were read at about 46 µM; Potency, µM (top dose mostly 37.8 µM), for inactives: at the highest dose activity change, negative = inhibition, actives largely listed as inhibitors; 1.8% of 300,000 active; AID 540276; active = well fitted inhibition curve with a large enough effect; inconclusive = small, poorly fitted or top-dose-only effect, or effect the other way; inactive = flat fitted curve, though single readings scatter; tested in HEK293 cells; about a fifth of its hits are not listed in these tables; also: % is scaled to controls: 0 for no effect and ±100 for the full control effect; luciferase read-out
# NS1 inh: blocks influenza NS1 protein function; AID 2326; S. cerevisiae slowed by influenza A NS1, growth recovery by OD600; Potency, µM (top dose mostly 46.1 µM), inactives show top-dose activity, positive = more growth; 0.4% of 270,000 active; active means well fitted rising curve with a large enough effect; inconclusive means small, poorly fitted or top-dose-only effect; inactive means no such curve, though single readings can be large or run the other way; also: nearly all actives have a fitted effect of over 50% in size
#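 In this qHTS, NS1 from influenza A is expressed in budding yeast, where it slows growth. Cells are switched from glucose to 2% galactose medium (pH 6.0, -URA), treated with compound, and growth recovery is read at OD600.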
# StopGo reporter: FMDV 2A StopGo reporter, luciferase signal; human cells with a luciferase reporter of 2A StopGo recoding; control for the full effect not named in the record; Potency, µM (doses to about 57.9 µM), inactives show at the highest dose signal change, negative = less light; 1.2% of 410,000 active; active = well fitted falling curve with a large enough effect; inconclusive = small, poorly fitted or top-dose-only effect; inactive = no such curve, though single readings can be large or run the other way; tested in HEK293T cells; also: % is scaled to controls: 0 for no effect and ±100 for the full control effect; nearly all actives have a fitted effect of over 45% in size; luciferase light after 4 h
# * hit, by the source's call; ? = inconclusive; . = no result given; & = joins results of further samples; [ ] = remark or other dose. Unless noted, calls follow the shape of the dose curve; as a rule, active = well fitted curve in the direction sought with a large enough effect; inconclusive = small, poorly fitted or top-dose-only effect, or another doubt; inactive = no such curve, though single readings can be large; an effect the other way counts as inactive or inconclusive. Potency is read from the fitted curve at half-maximal effect. Compounds as they come; overall some 4.5% were active at least once.
no. | Structure | SARS PLP yeast | RE007 growth inh | Lassa entry inh | Cruzain inh noDet
1 | CC(=O)C1C(c2ccc(F)cc2)C2C(C)=NN=C2CC1(C)O (stereo not drawn) | 11% | -15% | ? | -10%
2 | Cc1cccc(C(C)C)c1NC(=O)CN1C(=O)NC(Cc2ccccc2)C1=O (stereo not drawn) | 4% | 4% | 1% | .
3 | CC1(C)CC(=O)C(C(O)c2ccc([N+](=O)[O-])cc2)C(C)(C)N1 (stereo not drawn) | 1% | -13% | 8% | .
4 | Cc1ccc(OCC(=O)OC(C)CN2CCCCC2)cc1 (stereo not drawn) | 3% | -6% | . | .
5 | COc1ccc(NC(=O)CCN2CCN(S(=O)(=O)c3ccc(OC)cc3)CC2)cc1 | 3% | -1% | 27% | .
6 | CCOc1ccc(-c2cn3c(n2)sc2cc(C(=O)NC(C)C45CC6CC(CC(C6)C4)C5)ccc23)cc1 (stereo not drawn) | . | . | . | 0%
7 | CCOC(=O)C1=C(C)N(CCCCCC(=O)O)C(=O)NC1c1cccc([N+](=O)[O-])c1 (stereo not drawn) | -6% | -6% | . | .
8 | CCc1ccc2[nH]cc(S(=O)(=O)c3ccc(C)c(C)c3)c(=O)c2c1 | 1% | -5% | . | .
9 | O=c1cccc2n1CC1CC2CN(Cc2ccc3c(c2)OCO3)C1 (stereo not drawn) | ? | 11% | 9% | -4%
10 | O=C(C1=C(O)C(=O)N(CC2CCCO2)C1c1ccccc1Cl)c1ccco1 (stereo not drawn) | 0% | -2% | 24%[46.1 µM] | .

no. | Cruzain inh Det | Marburg entry inh | NS1 inh | StopGo reporter
1 | -1.0% | 28%[46.1 µM] | 15% | -14%
2 | . | ? | . | -21%
3 | . | ? | 9% | -14%
4 | . | . | -15% | 0%
5 | . | -1% | . | -20%
6 | -3.5% | -1%[46.1 µM] | . | -7%
7 | . | . | 4% | -6%
8 | . | . | 1% | -3%
9 | 3.7% | -7% | -2% | .
10 | . | 11%[46.1 µM] | -2% | 19%

# Other structures follow.
no. | Structure | SARS PLP yeast | RE007 growth inh | Lassa entry inh | Cruzain inh noDet
11 | COC(=O)C(Cc1cnc(Cl)s1)(C(=O)OC)c1ccc([N+](=O)[O-])cc1[N+](=O)[O-] | -2% | 6% | 2% | ?
12 | Cc1ccccc1NC(=O)c1cc2ccccn2n1 | -5% | -20% | . | .
13 | Cc1ccc(S(=O)(=O)N2CCCC2)cc1C(=O)N1CCN(Cc2ccccc2)CC1 | 2% | 9% | 5%[46.1 µM] | .
14 | CC(C)N(C)Cc1nnnn1CC(=O)N(C)Cc1ccc(F)cc1 | -2% | -5% | . | .
15 | COc1ccccc1N(CC(=O)N/N=C/c1ccc(SC)cc1)S(C)(=O)=O | -13% | -13% | 5% | -8%
16 | N#CCP(=S)(c1ccccc1)c1ccccc1 | -4% | 4% | ? | 11%
17 | O=C(CN1C(=O)NC2(CCCCC2)C1=O)Nc1ccc(S(=O)(=O)N2CCOCC2)cc1 | 11% | 13% | -2% | -6%
18 | O=C(CCN1CCN(CCO)CC1)Nc1ccccc1 | 2% | 11% | . | .
19 | CN(C)c1nc(OCCOC(=O)Nc2ccc(Cl)cc2Cl)nc(N(C)C)n1 | -12% | -16% | -9% | ?
20 | O=C(NCc1ccc(Cl)cc1)C1CCN(C(=O)c2ccco2)CC1 | 2% | -2% | 0% | .

no. | Cruzain inh Det | Marburg entry inh | NS1 inh | StopGo reporter
11 | 4.3% | ? | -1% | ?
12 | . | . | -4% | 18%
13 | . | 15%[46.1 µM] | 17% | -20%
14 | . | . | 5% | 0%
15 | -14% | -27% | -15% | -24%
16 | -3.3% | -6% | 1% | -9%
17 | 11% | 0%&3% | -17% | 5%
18 | . | . | 4% | -15%
19 | -2.0% | -29%&-29% | -6% | -20%
20 | . | -8%[46.1 µM] | 2% | -4%

# Other structures follow.
no. | Structure | SARS PLP yeast | RE007 growth inh | Lassa entry inh | Cruzain inh noDet
21 | CCCCNC(=O)C1CC(c2ccccc2[N+](=O)[O-])=NO1 (stereo not drawn) | 2% | 2% | . | -3%
22 | N#CC(=C=[N-])C1=C(C#N)C(c2ccccc2F)C([n+]2ccccc2)C(O)(C2CC2)N1 (stereo not drawn) | 6% | 4% | 9% | -3%
23 | O=C(NCC(=O)N1CCN(S(=O)(=O)c2cccs2)CC1)c1ccc(Cl)cc1 | -1% | 1% | -11% | .
24 | Cn1c2ccccc2c2ncn(Cc3ccc(F)cc3)c(=O)c21 | 0% | 0% | 21%[46.1 µM] | .
25 | O=C(O)c1cccc(NS(=O)(=O)c2cccc3nsnc23)c1 | -1% | 11% | 11% | -3%
26 | CCC(=O)Nc1cc(C(=O)NCc2ccc(C)cc2)ccc1S(=O)(=O)c1ccc(C)cc1 | . | . | -9%[46.1 µM] | -21%
27 | COc1ccc(NS(=O)(=O)c2cccc(NC(=O)COc3ccccc3[N+](=O)[O-])c2)cc1 | 4% | -19% | 7% | .
28 | COc1ccccc1Cn1c(=S)[nH]c2cc(C(=O)N3CCN(c4ccccc4OC)CC3)ccc2c1=O | 5% | 20% | . | .
29 | O=C(CSc1nnc(-c2ccc(F)cc2)o1)NC1CCCCC1 | -1% | 17% | . | .
30 | O=C(CN1C(=O)COc2ccc(S(=O)(=O)N3CCCC3)cc21)NC1CCCCCCC1 | 1% | . | . | -6%

no. | Cruzain inh Det | Marburg entry inh | NS1 inh | StopGo reporter
21 | 3.8% | . | -6% | 8%
22 | 1.4% | 6% | 0% | 0%
23 | . | -21%[46.1 µM] | -4% | -17%
24 | . | -5%[46.1 µM] | -4% | -19%
25 | 1.7% | -2% | 5% | ?
26 | -5.8% | . | . | -9%
27 | . | ? | . | 5%
28 | . | . | 8% | -11%
29 | . | . | 1% | -1%
30 | -2.0% | 4% | -13% | .

# (cont.)
no. | Structure | SARS PLP yeast | RE007 growth inh | Lassa entry inh | Cruzain inh noDet
31 | Cc1ccc(C(C)C)c(OCC(=O)OCc2c(C)noc2C)c1 | -1% | -10% | -8% | 0%
32 | CN(C)/C=C(\C(=O)c1cccc(Cl)c1)c1nnnn1-c1ccccc1 | 1% | 16% | -8% | .
33 | CCOC(=O)c1ccccc1NC(=O)CSc1cn(CC(=O)N2CCCCCC2)c2ccccc12 | . | . | -16%[46.1 µM] | -20%
34 | Nc1c(C(=O)O)sc2nc3c(cc12)CCCC3 | 1% | 7% | . | .
35 | COc1ccc(-c2cn(-c3ccc(C)c(Cl)c3)c(=S)[nH]2)cc1OC | -2% | 1% | -15%[46.1 µM] | .
36 | CC(C)C(=O)c1cn(Cc2ccccc2C#N)c2ccccc12 | -13% | 15% | -23% | -9%
37 | Nc1c(C(=O)NC2CCCC2)sc2nc(-c3cccs3)ccc12 | -4% | -1% | 29% | 25µM*
38 | Clc1cccc(Nc2ncnc3ccc(Br)cc23)c1 | -37% | ? | -24% | -13%
39 | Fc1ccc(CNc2ccc(N3CCN(Cc4ccccc4)CC3)cc2)cc1 | -6% | -2% | ? | .
40 | COc1ccccc1NCCC(=O)OCC(=O)Nc1cc([N+](=O)[O-])ccc1F | -10% | -10% | -17% | .

no. | Cruzain inh Det | Marburg entry inh | NS1 inh | StopGo reporter
31 | -2.8% | -5%[46.1 µM] | -36% | -8%
32 | . | 4%[46.1 µM] | -4% | -7%
33 | -4.9% | . | . | -21%
34 | . | . | 8% | -4%
35 | . | ? | 8% | ?
36 | -7.4% | ? | -31%[9.22 µM] | -26%
37 | -3.6% | 17% | 1% | 22%
38 | -7.3% | ? | -171% | .
39 | . | ? | -15% | -24%
40 | . | 1% | . | -24%

# Additional results:
no. | Structure | SARS PLP yeast | RE007 growth inh | Lassa entry inh | Cruzain inh noDet
41 | COc1cc2c(cc1N/C=C(\C#N)c1nc(-c3ccccc3)cs1)oc1ccccc12 | -3% | -9% | 2% | .
42 | O=C(CC1CCCCC1)NCCOc1ccccc1 | 30% | 3% | -2% | -5%
43 | CCCCN(C)C(=O)c1ccc2c(c1)N(Cc1cccc(F)c1)C(=O)c1ccccc1S2 | . | . | ? | 12%
44 | CNC(=O)C1CC(=O)N(c2ccc(OCC(=O)N3CCCC3)cc2)C1 (stereo not drawn) | 2% | 31% | 7%[46.1 µM] | .
45 | COc1ccc(NC(=O)CN2C(=O)COc3ccccc32)cc1OC | -2% | 6% | 6% | .
46 | CCN(CC)c1ccc(NC(=S)NC(=O)Cc2ccccc2)cc1 | 20% | -1% | ? | -1%
47 | COc1ccc(-c2nc(C)c(CCNC(=O)Cc3ccc(F)cc3)s2)cc1OC | . | . | -21%[46.1 µM] | ?

no. | Cruzain inh Det | Marburg entry inh | NS1 inh | StopGo reporter
41 | . | -3%[46.1 µM] | . | -1%
42 | 1.7% | ? | 3% | 36%[activator]
43 | -6.4% | . | . | -3%
44 | . | 5%[46.1 µM] | 8% | 3%
45 | . | -24% | -12% | -2%
46 | -12% | 0% | 22% | 11%
47 | -5.7% | . | . | -17%
